Screening results deposited in PubChem by National Center for Advancing Translational Sciences (NCATS).
2A firefly: Primary qHTS Assay for Foot and Mouth Disease Virus Antivirals against NCGC Sytravon and CBC Compound Libraries: Firefly Luciferase Signal; HEK cells with a luciferase reporter of 2A StopGo recoding; Potency, µM (series often up to 57.5 µM), inactives show top-dose signal change, negative = less light; actives 0.23% (n = 120,000); active = well fitted falling curve with a large enough effect; inconclusive = small, poorly fitted or top-dose-only effect; inactive = no such curve, though single readings can be large or run the other way; also: nearly all actives have a fitted effect of over 60% in size; overnight with compound
StopGo RLuc: Primary qHTS Assay for Foot and Mouth Disease Virus Antivirals against NCGC Sytravon and CBC Compound Libraries: Renilla Luciferase Signal | HEK cells with a luciferase reporter of 2A StopGo recoding | Potency, µM (titrated, usually from 57.5 µM), inactives show at the highest dose signal change, negative = less light | actives 0.32% (n = 120,000); active means well fitted falling curve with a large enough effect; inconclusive means small, poorly fitted or top-dose-only effect; inactive means no such curve, though single readings can be large or run the other way; also: nearly all actives have a fitted effect of over 55% in size; overnight with compound
Active calls of the source: *; ? = inconclusive; & = joins results of further samples; [ ] = remark or other dose. % is scaled to controls: 0 for no effect and ±100 for the full control effect; potency is read from the fitted curve at half-maximal effect. The order is random; overall some 0.55% were active at least once.

canonical_smiles,2A firefly,StopGo RLuc
COCCn1c(SC(C)C(=O)c2ccc(C(C)(C)C)cc2)nnc1-c1ccccc1 (stereo not drawn),0%,59%[activator]
Cc1cc(C)nc(Nc2nc(-c3ccccc3)c3ccccc3n2)n1,-5%,-3%
O=C(CSc1nc2c([nH]c3ccccc32)c(=O)n1-c1ccccc1F)Nc1cccc(Cl)c1,?,6%
Cc1ccc(N(Cc2ccccc2)C(=O)c2cccs2)cc1,93%[activator],22%
Nc1nccnc1C(=O)NCC#Cc1cccc(C(F)(F)F)c1,0%,14%
COc1ccc(NC(=O)CCn2cnnn2)cc1,-2%,24%
COc1ccc(C(=O)NCc2n[nH]c(=O)c3ccccc23)cc1OC,0%,42%[activator]
COc1ccccc1N1CCN(S(=O)(=O)c2ccc3c(c2)oc(=O)n3C)CC1,-8%,0%
Cc1ccc2c(c1)C(C)(C)C1(/C=C/c3ccc(Cl)cc3)NC(=O)CN21 (stereo not drawn),19%,13%
Cc1ccccc1Cn1c2ccccc2c2cnn(CC(=O)NC3CCC(C)CC3)c(=O)c21 (stereo not drawn),-5%,-11%
Cn1c(C(=O)NCc2ccccc2Cl)cc2sc(Cl)cc21,0%,8%
Cc1cnc(C(=O)NC(c2ccccc2)c2ccccn2)cn1 (stereo not drawn),-5%,5%
CCCOc1cc(S(=O)(=O)NC(CC)CO)ccc1Cl (stereo not drawn),24%,145%[activator]
COc1ccc(CNc2nccn(-c3ccc(C(C)C)cc3)c2=O)cc1OC,?,?
Cc1nc2nc(NCc3ccccc3)[nH]n2c(=O)c1CCC(=O)Nc1cccc2ccccc12,9%,-5%
Cc1nnc(N2CCC(C(=O)NCCc3ccccc3Cl)CC2)c2nn(-c3ccccc3)c(C)c12,0%,-21%
Cc1ccc(NC(=O)c2cc(-c3ccncc3)nc3ccccc23)c(O)c1,-10%,-10%
CCOc1ccc(NC(=O)COc2ccc(C)c(C)c2)c2cccnc12,7%,-8%
CCOC(=O)c1cnc2ccc(OC)cc2c1Nc1cccc(Cl)c1,0%,?
CCOc1ccc(C(=O)NCCS(=O)(=O)N2CCN(c3ccccc3F)CC2)cc1OCC,-2%,2%
O=C(Nc1nnc(C2CC2)s1)c1nn(Cc2ccccc2)c(=O)c2ccccc12,11%,12%
O=c1cc(-c2ccccc2Cl)oc2ccc(Br)cc12,82%[activator],434%[activator]
CCn1c(=O)c2sccc2n2c(CCCC(=O)N3CCN(c4ccc(OC)cc4)CC3)nnc12,-14%,-4%
CCOc1ccccc1NC(=O)CC1Nc2ccccc2NC1=O (stereo not drawn),0%,32%[activator]
O=C(NCC(c1cccs1)N1CCCCC1)c1cc(=O)c2ccc(Br)cc2o1 (stereo not drawn),-16%,-6%

(further entries)
canonical_smiles,2A firefly,StopGo RLuc
CCc1nn(CC(=O)NCCc2ccc(Cl)cc2)c(=O)c2cc3ccccc3n12,-4%,-7%
O=C(Nc1cccc2cccnc12)c1cccc2c(Br)cccc12,-24%,-14%
Clc1ccc(COc2ccc(-n3cnnn3)cc2)cc1Cl,174%[activator],-5%
O=C(Nc1cc(-c2nc3ccccc3o2)ccc1Cl)c1sc2c([N+](=O)[O-])cccc2c1Cl,22%,-1%
NC(=O)C1=C(Nc2ccc(F)cc2F)c2ccccc2S1(=O)=O,10%,14%
CC1C(=O)Nc2ccc(-c3csc(NC4CCCC4)n3)cc21 (stereo not drawn),16%,19%
Cc1ccc(S(=O)(=O)N2CCN(C(=O)c3cc4ccccc4oc3=O)CC2)cc1C,-25%,-11%
Cc1ccc(S(=O)(=O)c2nc(-c3ccc(F)cc3)oc2SCC(=O)c2ccccc2)cc1,1%,164%[activator]
Cc1cccn2c(=O)cc(COc3cccc(NC(=O)COc4ccccc4)c3)nc12,27%&-19%,55%&-12%[activator]
Clc1ccc2c(N/N=C/c3cccs3)ccnc2c1,40%[activator],-7%[1.06 µM]
COc1cccc(NC(=O)CCSc2nc(-c3ccco3)cc(C(F)(F)F)n2)c1,0%&-5%,97%&27%[activator]
CC(=O)Nc1ccc(C(=O)N(CCc2ccccc2)Cc2cccs2)s1,?,?
O=C(NCCc1ccco1)c1nnc(C(=O)Nc2cccc(Cl)c2)s1,1%,-3%
CCOc1ccccc1NC(=O)C1CCN(S(=O)(=O)c2cccs2)CC1,-8%,-9%
O=C(Nc1ccccc1C(F)(F)F)c1cccc(Cl)c1Cl,46%[activator],25%
Cc1ccc2oc(=O)c3cnn(CC(=O)N4CCN(c5cc(Cl)ccc5C)CC4)c3c2c1,-18%,-16%
O=C(Nc1cc(Cl)cc(Cl)c1)c1ccc(F)c(S(=O)(=O)NCc2ccccc2Cl)c1,?,-10%
N#Cc1nc(COc2ccc(Br)cc2)oc1N1CCCCCC1,0%,60%[activator]
NC(=O)CSc1nnc(-c2ccccc2Br)n1-c1cccc(C(F)(F)F)c1,-15%,-3%
COC(=O)c1ccc(NC(=O)C2CCN(c3oc(-c4ccco4)nc3C#N)CC2)cc1,-2%,-8%
Cc1ccc2c(c1)-c1nc(-c3ccc4c(c3)NC(=O)CO4)cc(-c3ccccc3)c1CO2,-23%,-11%
Cc1ccc(C)c(NC(=O)CSc2nc(=O)n(Cc3ccccn3)c3c2CCC3)c1,-6%,131%[activator]
CC[C@]12CCCN3CCc4c(n(c5ccccc45)C(=O)C1)[C@@H]32,14%,24%
NCC1(CC(=O)O)CCCCC1,-8%,-2%
Cc1ccc2nc(-c3ccccc3)cc(C(=O)N3CCN(CC(=O)NC4CC4)CC3)c2c1,74%[activator],64%[activator]

Continued.
canonical_smiles,2A firefly,StopGo RLuc
COc1ccc(NC(=O)Nc2c[nH]c(=O)[nH]c2=O)c(OC)c1,-6%,-9%
CCCNC(=O)NC(=O)CSc1cc(C)c2ccccc2n1,-5%,20%
CCS(=O)(=O)N1CCC(n2c(C(F)(F)F)nc3cccnc32)CC1,20%,5%
COc1cc(/C=N/NC(=O)CNc2cccc(C(F)(F)F)c2)ccc1OC(=O)c1ccc(F)cc1,10%,13%
O=C(CCc1nnc(-c2ccccc2)o1)Nc1ncc(Cc2cccc(Cl)c2)s1,10%,5%
Cc1oc(-c2ccccc2)nc1CC(=O)NCC1(N(C)C)CCCCCC1,-15%,-10%
CCOc1ccc(NC(=O)c2cc3cc(OC)ccc3oc2=O)cc1,6%,-10%
COC(=O)c1ccccc1NC(=O)CSc1nc(-c2ccccc2)cc(C(F)(F)F)n1,2%,-9%
Cc1oc2cc(OCC(=O)NC(C)c3ccco3)ccc2c(=O)c1Oc1ccccc1 (stereo not drawn),-21%,?
Cc1c(Cl)cccc1NC(=O)c1ncoc1-c1ccco1,13%,7%
CCOc1ccc(OCC)c(NC(=O)c2csc3c2CCCC3)c1,6%,1%
COc1ccc(S(=O)(=O)N2CCC(Oc3ccc(-n4cnnn4)cc3)CC2)cc1OC,?,60%[activator]
O=C(COc1ccc2ccc(=O)oc2c1)c1ccccc1,137%[activator],30%
Cc1c(C)c2ccc(OCC(=O)NCCN3CCOCC3)c(C)c2oc1=O,0%,1%
COc1ccc(-c2c(C)nn3c(-c4ccccc4)cc(C)nc23)cc1OC,-10%,-10%
CC(=O)/C=C(/NCc1ccccc1)C(F)(F)F,6%,-4%
CC(C)(C)c1ccc(C2(C(=O)O)CC2)cc1,-6%,-1%
O=C(Nc1ccc(F)c(Cl)c1)c1ccc2c(Cl)c3c(nc2c1)CCCC3,46%,-2%
Cc1ccc(Cl)cc1NC(=O)c1ccc2ccccc2n1,139%[activator],-8%
Cc1cc(Br)cc(C)c1OC(C)C(=O)O (stereo not drawn),-1%,-4%
Cc1ccc2nc(SCc3nc(-c4ccccc4C)no3)[nH]c2c1,-1%,-14%
Cc1[nH]c(C(=O)O)c(C)c1C#N,0%,2%
CNc1nc(-c2ccc3c(c2)OCCCO3)cs1,90%[activator],0%
O=C(COC(=O)c1cc2ccccc2[nH]1)NC1CCCCCCC1,24%,2%
C/C(CCC(C)C)=N\Nc1nc2ccccc2[nH]1,0%,11%

Continuation.
canonical_smiles,2A firefly,StopGo RLuc
COc1ccc2c(c1)CCCN2C(=O)c1cc2ccc(C)cc2nc1C,-5%,0%
CCOC(=O)c1c(C)n(CC)c2ccc(OC)cc12,1%,-11%
CS(=O)(=O)N1CCc2cc(C(=O)CSc3nnc(C4CC4)n3C3CC3)ccc21,-6%,5%
Cc1cccc(C(=O)NCCC(=O)NCC2CCCCC2)c1,7%,0%
COc1ccccc1N1CCN(C(CNC(=O)C(=O)NCc2ccc(F)cc2)c2cccnc2)CC1 (stereo not drawn),?,?
CCOc1ccc(C2C(=O)N(C3CCCCCC3)CC(=O)N2Cc2ccc(C)cc2)cc1OC (stereo not drawn),-20%,21%
CCOC(=O)c1cc(-c2ccc(S(=O)(=O)Nc3ccc(C)cc3Cl)s2)on1,7%,8%
O=C(/C=C/c1ccc(Cl)cc1Cl)c1ccc(OC(F)F)cc1,0%,19%
Cc1cccc(-c2nn3c(=O)cc(N4CCN(C(=O)COc5ccccc5Cl)CC4)nc3s2)c1,-3%,-8%
O=C(O)Cc1ccc(S(=O)(=O)Cc2ccccc2)cc1,3%,-9%
O=S(=O)(NC1CCSc2c(F)cccc21)c1ccc(F)cc1 (stereo not drawn),2%,66%[activator]
CC(CNC(=O)CSc1ccc2ccccc2n1)c1ccccc1 (stereo not drawn),5%,-2%
CCc1ccc(CN(C(=O)c2cc(=O)c3cc(CC)ccc3o2)C2CCS(=O)(=O)C2)cc1 (stereo not drawn),-16%,1%
COc1ccc2cc(C(=O)O)sc(=O)c2c1OC,15%,9%
Cc1cc(C)c(/C=C/c2onc(C)c2S(=O)(=O)N2CCC(C(=O)Nc3cccc(C)c3C)CC2)c(C)c1,-18%,-11%
COc1ccccc1N=c1scc(-c2ccc(S(=O)(=O)N3CCCC3)cc2)n1C,?,?
COc1cc(NC(=O)Cn2nc(C(F)(F)F)c3c2CCCC3)cc(OC)c1OC,-24%,-13%
CC(C)(C)c1ccc(C(=O)N2CCN(c3nc4ccccc4o3)CC2)cc1,1%,-4%
O=C(CSc1nnnn1C1CC1)c1ccc(C2CCCCC2)cc1,24%,-28%
Cc1ccc(-c2nc(CS(=O)CC(=O)N3CCN(c4ccc(Cl)cc4)CC3)c(C)o2)cc1 (stereo not drawn),-6%,-12%
CNS(=O)(=O)c1cn(CC(=O)N2CCN(c3cccc(Cl)c3)CC2)cc1S(=O)(=O)NC,-16%,8%
Cc1ccc(/C=C(\C#N)C(=O)Nc2cccc(Cl)c2)o1,108%[activator],10%
COc1ccc2oc(=O)c(S(=O)(=O)N3CCCCCC3)cc2c1,1%,-3%
CCn1c2c(c(=O)n3ncc(C(=O)Nc4ccc(C(=O)OC)cc4)c13)CN(Cc1ccc(OC)cc1)CC2,0%,-15%
CCc1ccc2occ(CC(=O)Nc3c(C(=O)c4ccc(C)cc4)oc4ccccc34)c2c1,-15%,6%

Rewritten with two lines to a compound: entries from further up
Order of results – 2A firefly | StopGo RLuc
- CCOC(=O)c1cc(-c2ccc(S(=O)(=O)Nc3ccc(C)cc3Cl)s2)on1
    7% | 8%
- O=C(/C=C/c1ccc(Cl)cc1Cl)c1ccc(OC(F)F)cc1
    0% | 19%
- Cc1cccc(-c2nn3c(=O)cc(N4CCN(C(=O)COc5ccccc5Cl)CC4)nc3s2)c1
    -3% | -8%

(cont.)
canonical_smiles,2A firefly,StopGo RLuc
CCOc1ccc(-n2c(=O)c3c4c(sc3n(CC(=O)NC(C)CC)c2=O)CCCC4)cc1 (stereo not drawn),-5%,-16%
COc1ccc(NC(=O)CSC2=Nc3ccccc3C3=NC(C(C)C)C(=O)N23)cc1OC (stereo not drawn),3%,65%[activator]
CN1CCC(NC2CCCC2)CC1,-12%,-3%
O=C(Cc1ccc2c(c1)CCCC2)NC1CCc2ccccc21 (stereo not drawn),33%,72%[activator]
CCCCN(CC)CCCNC(=O)Cn1ncc2c([nH]c3ccc(C)cc32)c1=O,-14%,-12%
O=C1C(=O)N(CCCO)C(c2ccccc2)/C1=C(\O)c1ccc(Br)cc1 (stereo not drawn),-8%,-7%
Cc1ccc(CN2CCN(CC(=O)Nc3cccc4nsnc34)CC2)o1,-4%,-12%
CCOc1ccc(CCNC(=O)c2nn(-c3ccc(OC)c(Cl)c3)c(=O)c3c2c2ccccc2n3C)cc1OCC,-15%,-2%
Cc1ccccc1C(=O)NCC(=O)NCCc1c[nH]c2ccccc12,0%,19%
N#Cc1c(SCC(=O)c2ccccc2)nsc1SCC(=O)c1ccccc1,0%,69%[activator]
CCOC(=O)C(=Cc1ccncc1)C(=O)OCC,-18%,-20%
CCOC(=O)c1cc(-c2ccccc2)n(CCC(=O)Nc2ccc(OC)c(Cl)c2)c1C,-11%,-8%
COc1ccc(-c2cc3ccc(OS(=O)(=O)c4ccccc4)cc3oc2=O)cc1OC,12%,24%

Ordered by length of the SMILES (low to high): three of the compounds above
canonical_smiles,2A firefly,StopGo RLuc
N#Cc1nc(COc2ccc(Br)cc2)oc1N1CCCCCC1,0%,60%[activator]
O=S(=O)(NC1CCSc2c(F)cccc21)c1ccc(F)cc1 (stereo not drawn),2%,66%[activator]
Cc1ccccc1C(=O)NCC(=O)NCCc1c[nH]c2ccccc12,0%,19%
